GLA inh pH 4.5 – alpha-galactosidase A (human) inhibition, pH 4.5; AID 1467; activity change, negative = inhibition, % at 105 µM; 230,000 tested, under 10 active; purified enzyme, 4-MU-alpha-Gal fluorescence, pH 4.5; inconclusive = small, poorly fitted or top-dose-only inhibition, or a rising curve; inactive = flat fitted curve, though single readings scatter; no compound was filed as active;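 also: 0% = full activity with enzyme and -100% = basal without enzyme; dose as in the result columns while the protocol names 77 µM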
Target sequence (P06280 whole entry, looked up): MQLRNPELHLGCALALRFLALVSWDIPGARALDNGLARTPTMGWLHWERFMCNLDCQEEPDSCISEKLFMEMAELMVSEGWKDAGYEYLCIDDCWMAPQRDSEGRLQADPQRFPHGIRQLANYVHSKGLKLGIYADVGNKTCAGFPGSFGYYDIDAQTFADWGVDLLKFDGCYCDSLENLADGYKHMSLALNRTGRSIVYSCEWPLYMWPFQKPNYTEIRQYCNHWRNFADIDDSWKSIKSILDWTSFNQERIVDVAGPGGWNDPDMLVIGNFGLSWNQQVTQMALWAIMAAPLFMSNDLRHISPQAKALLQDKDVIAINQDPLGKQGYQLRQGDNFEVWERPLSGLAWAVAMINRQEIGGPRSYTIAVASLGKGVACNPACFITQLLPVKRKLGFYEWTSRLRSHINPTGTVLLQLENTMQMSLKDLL
Rango release inh – inhibitors of RanGTP-induced Rango-importin beta complex dissociation. O95149+P62826. Biochemical FRET Rango-importin beta, RanGTP-induced dissociation. Potency, µM (top dose mostly 46.1 µM), inactives show at the top dose activity change, negative = inhibition. actives 0.071% (n = 340,000). AID 540253; active means falling FRET ratio curve, often poorly fitted, with flat reads before Ran was added; inconclusive means other falling curves, or compound fluorescence or quenching; inactive means flat or rising ratio curve;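 also: potency is read from the fitted curve at half-maximal effect; % of control where 0% means no effect; nearly all actives have a fitted effect of over 45% in size; -100% = wells without RanGTP and RCC1; the record marks most hits as doubtful in a second field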
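Quantitative HTS using a FRET biosensor: 0.1 uM Rango, 0.25 uM importin beta, 0.6 uM Ran, 2 mM GTP, 0.2 uM RCC1 final, PBS with DTT, Tween-20 and BSA. Post-read taken 45 min after Ran addition.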
miR-21 FLuc – miR-21 reporter, rising signal; Potency, µM (highest dose often 38.3 µM), without a hit: at the highest dose reporter change, positive = more light; HeLa miR-21 FLuc reporter, luciferase, 48 h; 340,000 tested, under 10 active; AID 2288; active = well fitted rising curve with a large enough effect; inconclusive = small, poorly fitted or top-dose-only effect; inactive = no such curve, though single readings can be large or run the other way;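 also: % of control where 0% means no effect; miR-21 action dims this reporter so a rising signal means less miR-21 action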
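Luminescence from a firefly luciferase reporter carrying a miR-21 binding site downstream, stably expressed under a CMV promoter in HeLa cells that make miR-21 endogenously, reports miRNA modulation after 48 h compound exposure up to approximately 40uM final.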
Rango-impB inh – inhibitors of Rango-importin beta complex formation; AID 540263; Rango CFP/YFP FRET sensor + importin beta, 45 min; Q14974; actives 0.031% (n = 340,000); Potency, µM (series often up to 92.2 µM), for inactives: top-dose inhibition of complex formation; active = rising FRET ratio curve, often small or poorly fitted; inconclusive = mostly compound fluorescence or quenching in the first reads; inactive = flat curves in all reads;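 also: potency is read from the fitted curve at half-maximal effect; 0% = DMSO wells and 100% = buffer wells lacking importin beta; nearly all actives have a fitted effect of over 15% in size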
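FRET biosensor Rango (snurportin 1 IBB between N-terminal EYFP and C-terminal Cerulean), 50 nM in PBS/1 mM DTT/0.02% Tween-20/0.1% BSA, preincubated 5 min RT with compound; 0.125 microM importin beta added, 45 min RT, CFP/YFP FRET ratio read.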
* hit, by the source's call; ? = inconclusive; nt = no result given.

SMILES	GLA inh pH 4.5	Rango release inh	miR-21 FLuc	Rango-impB inh
CC(=O)N1CCc2c(sc3c2c(=O)n(-c2ccccc2)c(=O)n3CC(=O)NCC2CCCO2)C1 (centres undefined)	nt	-8.6%	-2.2%	-1.4%
CC(C(=O)Nc1ccc(O)cc1)c1cccc(C(=O)c2ccccc2)c1 (centres undefined)	4.3	-0.4%	6.5%	1.6%
CCCC(=O)Oc1ccccc1C1SCc2cc(C)c(C)cc2CS1	6.2	?	-1.5%	-2.3%
O=C(NNc1ccccc1)Nc1cc(Cl)ccc1Cl	nt	-12.3%	nt	0.1%
Cc1ccccc1OCC(=O)Nc1cccc(S(=O)(=O)NC2=NCCCCC2)c1	nt	13.9%	nt	-5.7%
CCOC(=O)/C(C#N)=C\c1ccc(O)c(OC)c1	-10.1	?	7.2%	?
Cc1cc(N2CCOCC2)c2c(N)cc(C)c(C)c2n1	-3.1	-5.5%	-1.6%	1.1%
O=c1cc(C(O)C[N+](=O)[O-])occ1OCc1ccccc1 (centres undefined)	nt	1.7%	nt	-2.5%
CCOC(=O)c1sc2nc(C)n(CC(=O)NCC3CCCO3)c(=O)c2c1C (centres undefined)	-17.8	10.2%	-4.4%	?
O=C1CCCC2=C1C(c1ccncc1)c1c(nc(SCc3ccccc3Cl)[nH]c1=O)N2 (centres undefined)	-0.5	-7.5%	-0.7%	?
O=C1C(Cl)=C(N2CCCCC2)C(=O)N1Cc1ccccc1	3.8	?	-9.4%	?
Cc1noc(C)c1COC(=O)C1(c2cccc(F)c2)CCCC1	-0.3	17.3%	1.3%	?
O=C(CCn1c(=O)c2ccccc2n(Cc2cccnc2)c1=O)NCc1ccc2c(c1)OCO2	-8.3	-8.9%	-1.1%	1.6%
CCN(CC)c1nc2ccccc2[nH]c1=O	-4.3	-0.1%	-12.8%	-4.9%
CCCN(CCC)C(=O)c1cc(S(=O)(=O)N2CCCCC2)c[nH]1	nt	5.1%	3.5%	-0.3%
CCCc1nn(C)c(C(=O)Nc2ccccc2)c1Cl	-17.0	-5.3%	-66.2%	-0.5%
CCOc1ccccc1NC(=O)CSc1ccc([N+](=O)[O-])cc1	-20.8	3.1%	-3.4%	0.7%
CNC(=S)N1CCN(c2ccc(OC)cc2)CC1	3.2	22.2%	-6.6%	1.6%
Cc1ccc2c(c1)C(c1ccc(F)cc1)N(C(=O)C1CC1)CC(=O)N2 (centres undefined)	0.5	16.9%	-13.0%	1.9%
C#CCOCCOCCOCCNc1nc(N2CCN(C(=O)CCCCCCCCCCNC(=O)[C@H](CCCCN)n3cc(C)nn3)CC2)nc(N2CCN(C(=O)CCCCCCCCCCNC(=O)[C@H](CCCCN)n3cc(CCCC(=O)O)nn3)CC2)n1	nt	17.4%	nt	?
Cc1cc(C)cc(CN2C(=O)NC3(CCCCCC3)C2=O)c1	nt	?	-1.9%	-4.2%
Cc1ccccc1OCC(=O)NCC(=O)OCC(=O)c1ccc([N+](=O)[O-])cc1	nt	1.2%	-4.8%	5.1%
COc1cc(C2C(C(=O)c3ccco3)=C(O)C(=O)N2Cc2cccnc2)cc(OC)c1OC (centres undefined)	-3.5	8.2%	-1.1%	-0.5%
CC(CC(=O)N1CCN(S(=O)(=O)c2ccc([N+](=O)[O-])cc2)CC1)c1ccccc1 (centres undefined)	nt	10.9%	nt	0.5%
CSCCC(NS(=O)(=O)c1ccc(C)cc1)C(=O)N1CCCC1 (centres undefined)	nt	-9.5%	-0.1%	-1.4%
COc1cc(C2/C(=C(\O)c3ccc4c(c3)OCCO4)C(=O)C(=O)N2Cc2ccco2)ccc1O (centres undefined)	nt	-13.8%	-2.8%	-3.1%
COC(=O)c1cc(S(=O)(=O)N2CCN(Cc3ccccc3)CC2)cn1C	nt	22.2%	-1.6%	6.5%
O=S(=O)(NCc1cc(-c2ccccc2Cl)no1)c1ccccc1	4.0	15.3%	-8.8%	3.9%
C=CC[C@H]1CC(C)=C[C@H](CC=C)N1C(=O)c1cc(COc2ccccc2SC)on1	nt	-0.6%	5.2%	-3.6%
COc1cccc(/C=N/Nc2nnc(C)n2N)c1O	nt	21.9%	-5.1%	-0.7%
CN(C(=O)c1ccc(NC(=O)Cc2ccc(NC(=O)C3CCN(C(=O)C4CCCC4)CC3)cc2)cc1)C1CCCC1	nt	5.7%	nt	-0.4%
CC(=O)NC1(C2CCCCC2=O)CCCCC1 (centres undefined)	-2.2	1.2%	-7.6%	1.3%
O=C(CCNS(=O)(=O)c1ccccc1)OCC(=O)c1ccc(F)cc1	nt	7.5%	nt	-3.6%
CC(=O)NC(Cc1c[nH]c2ccccc12)C(=O)Nc1ccc2c(c1)OCO2 (centres undefined)	-2.5	32.8%	-17.0%	-0.5%
CC1(C)CC(=O)C(C=NCCN2CCN(CC(=O)Nc3ccc(Cl)cc3)CC2)=C(O)C1	7.7	6.6%	3.0%	-1.0%
CC(C)Cn1c(N2CCN(CC(=O)Nc3ccc(Cl)cc3)CC2)nc2ccccc21	2.8	14.6%	-1.9%	-0.1%
N#Cc1ccc(CN2CCN(C(=O)Cn3nc(C(N)=O)c4ccccc4c3=O)CC2)cc1	nt	0.5%	5.8%	1.8%
Cc1ccccc1NS(=O)(=O)c1ccc(C(=O)NCC(c2ccccc2)N(C)C)cc1 (centres undefined)	nt	11.2%	8.2%	-3.6%
COc1ccc(NC(=O)Nc2nccs2)cc1	0.1	12.3%	-4.5%	0.2%
CCOc1ccc2c(c1)S/C(=C\c1cccs1)C(=O)N2	2.6	15.9%	-55.0%	1.5%

Reprinted at random: 3 compounds from above
SMILES	GLA inh pH 4.5	Rango release inh	miR-21 FLuc	Rango-impB inh
CC(=O)NC(Cc1c[nH]c2ccccc12)C(=O)Nc1ccc2c(c1)OCO2 (centres undefined)	-2.5	32.8%	-17.0%	-0.5%
CC1(C)CC(=O)C(C=NCCN2CCN(CC(=O)Nc3ccc(Cl)cc3)CC2)=C(O)C1	7.7	6.6%	3.0%	-1.0%
Cc1ccccc1NS(=O)(=O)c1ccc(C(=O)NCC(c2ccccc2)N(C)C)cc1 (centres undefined)	nt	11.2%	8.2%	-3.6%

(further entries)
SMILES	GLA inh pH 4.5	Rango release inh	miR-21 FLuc	Rango-impB inh
COc1ccc(C(=O)COC(=O)Cn2cnc3ccccc3c2=O)c(OC)c1	nt	22.6%	nt	-0.9%
CC(=N)C1=C(O)CC(C)(C)CC1=O	-8.3	-10.4%	0.8%	-3.9%
O=C1CC(N2CCN(S(=O)(=O)c3ccc(Cl)cc3)CC2)C(=O)N1CCc1ccccc1 (centres undefined)	2.5	11.8%	-9.0%	-1.0%
COC(CSc1ncnc2c1oc1nc3c(cc12)COC(C)(C)C3)OC	-0.7	-4.7%	1.3%	-0.8%
CN(C)S(=O)(=O)c1ccc(SCC(=O)Nc2ccc3c(c2)OCCO3)nc1	nt	0.4%	nt	-3.2%
C/C=C/Cn1c(N2CCCCCC2)nc2c1c(=O)[nH]c(=O)n2C	-0.9	10.2%	-1.0%	7.1%
Cc1cccc(COCC(Cc2ccccc2)N2CCN(C(=O)c3ccc(Cl)c(Cl)c3)CCC2=O)c1 (centres undefined)	2.6	-4.9%	-1.0%	?
O=C(OCC(=O)c1ccc(Cl)cc1Cl)c1ccc2c(c1)C(=O)N(c1cccc3ncccc13)C2=O	-2.3	-5.6%	-1.2%	1.9%
CC(C)Oc1ccc(/C(O)=C2/C(=O)C(=O)N(Cc3cccnc3)C2c2ccco2)cc1 (centres undefined)	-3.2	15.5%	-24.0%	1.3%
O=C(CSc1nnc(-c2cccc(F)c2)o1)Nc1nncs1	-5.2	1.4%	-17.0%	3.2%
Cc1cc(C)c2cc(C(=O)N3CCC(C(=O)c4ccc(F)cc4)CC3)[nH]c2c1	-19.2	6.3%	3.7%	0.6%
CCOC(=O)N1CCC(N(CCN(C)C)C(=S)Nc2ccccc2OCC)CC1	-17.3	9.1%	-2.3%	-4.4%
C=CCC[C@@H](Cc1ccc(F)cc1)C(=O)O[C@H](CNC(=O)[C@H](CC=C)CC(=O)N(CCO)Cc1ccccc1)c1ccccc1	nt	9.9%	nt	-3.5%
Cc1cc(C)cc(NC(=O)COC(=O)CCn2c(C)csc2=O)c1	nt	-5.7%	nt	0.2%
O=S(=O)(c1cc(F)ccc1F)N1CCC2(CC1)OCCO2	nt	4.8%	-67.4%	-2.7%
Cc1onc(-c2ccccc2)c1C(=O)N1CCCC1	nt	-7.7%	-4.5%	2.0%
COc1ccc2c(c1)c(N=NC(N)=S)c(O)n2CC(=O)c1ccccc1	nt	-4.1%	-5.5%	-2.8%
CCN(CC)c1ccc(/C=C(\C#N)c2nc(-c3cccs3)c(NC(C)=O)s2)cc1	-13.0	nt	-2.5%	nt
CCCOc1ccc(-c2nc(C#N)c(N3CCN(CC)CC3)o2)cc1	-6.7	-8.1%	-10.4%	-1.3%
O=C1C=CC(=O)N1c1ccc2c(c1)Cc1cc(F)ccc1-2	nt	-16.0%	nt	0.2%
Cc1nnc(SC(C(=O)Nc2cc(Cl)cc(Cl)c2)c2ccccc2)[nH]c1=O (centres undefined)	-1.3	0.0%	3.9%	3.5%
Cc1ccc(S(=O)(=O)N2CCOCC2)cc1C(=O)OCC(=O)N1CCc2ccccc2C1	-5.8	-6.8%	0.8%	-0.9%
CCCOc1cccc(C2/C(=C(/O)c3ccncc3)C(=O)C(=O)N2CCCN(C)C)c1 (centres undefined)	-6.3	nt	-0.5%	nt
O=[N+]([O-])c1cc(CN2CCC(O)CC2)ccc1Cl	2.8	-5.0%	-0.5%	-1.0%
O=C(O)C1C2CCC(CC2)C1C(=O)N1CCN(Cc2ccc(F)cc2)CC1 (centres undefined)	nt	1.0%	0.3%	-0.2%
COc1cccc(/C=C2/NC(=O)NC2=O)c1OCC(=O)Nc1ccccc1	-2.2	-5.4%	-6.9%	0.2%
C=CCNC(=O)c1ccccc1NC(=O)C1CC(=O)N(C(C)C)C1 (centres undefined)	nt	1.8%	-1.9%	-1.4%
O=C(Nc1ncc([N+](=O)[O-])s1)c1ccc2c(c1)OCO2	nt	-12.7%	?	-3.9%
CCC(=O)N1CCc2cc(S(=O)(=O)CCC(=O)Nc3c(C)n(C)n(-c4ccccc4)c3=O)ccc21	nt	14.0%	nt	1.1%
Cc1cc(C)nc(N(C#N)S(=O)(=O)c2ccccc2Cl)n1	-2.9	-6.1%	-2.7%	-3.1%
O=C(CN1CCCCC1)NC(=O)NC1CCCCC1	nt	13.6%	nt	1.9%
COc1ccc(CNC(=O)CCC(=O)c2ccc(F)cc2)cc1OC	nt	-15.9%	nt	?
CC(=O)Nc1ccccc1C(=O)N1CC(C)OC(C)C1 (centres undefined)	8.2	?	-3.1%	-2.4%
COCCCNC(=O)CC1C[C@H](C(=O)N(C(C)C)C(C)C)[C@@]2(C)c3[nH]c4ccc(OC)cc4c3CCN2C1=O (some centres undefined)	nt	24.1%	nt	-0.1%
COc1cc(S(=O)(=O)Nc2cccnc2)ccc1Cl	nt	-5.9%	-1.1%	-2.0%
CC(=O)N/C(=C\c1ccccc1)C(=O)OCC(=O)NC(C)C12CC3CC(CC(C3)C1)C2 (centres undefined)	8.0	0.0%	-22.9%	-1.2%
O=[N+]([O-])c1ccc(/C=N/Nc2ccc3ccccc3c2)o1	-4.2	0.0%	-24.0%	7.2%
Fc1ccc(OCCOCCN2CCCC2)cc1	nt	1.9%	nt	-1.0%
O=C(N/N=C/C(Cl)=C\c1ccccc1)c1cnccn1	-26.0	-0.1%	-29.9%	1.6%
Cc1ccc(S(=O)(=O)N2CC3(C)CN(S(=O)(=O)c4ccc(C)cc4)CC(C)(C2)C3)cc1	9.1	21.7%	-0.2%	0.5%
CC(=O)Nc1ccc(S(=O)(=O)NCC2CCC(C(=O)NC(C)c3ccccc3)CC2)cc1 (centres undefined)	-5.7	-12.5%	-4.2%	-0.7%
CCN=C1Cn2c(nc3scc(-c4ccccc4)c3c2=O)CN1CC	0.3	?	-7.1%	?
O=S(=O)(c1cnc(Cl)c(Br)c1)N1CCN(c2ncccn2)CC1	-1.1	-12.5%	0.5%	-0.1%
COc1cccc(CN(C)CC2CCCN(CCc3ccccc3C)C2)c1 (centres undefined)	nt	-13.9%	2.0%	?

Source: PubChem BioAssay (National Center for Advancing Translational Sciences (NCATS))

This is a subset (hit frequency here may not be typical).
